Source: PubChem BioAssay (several laboratories)
AF4-AF9 inh = inhibitors of human MLL-AF4/AF9 interaction; hit rate 0.47% among 350,000; inhibition, % at 10 µM; AlphaScreen, biotin-AF4 peptide binding to FLAG-AF9;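 active = every replicate reaching a set inhibition limit, whatever the replicate mean, cut at about 25% in these data; inconclusive = mean inhibition reaches that limit but some replicates miss it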;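 also: 0% = plate neutral control median and 100% = total signal loss; the record names both 10 and 1 µM as test concentration; the first replicate is given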
Target sequence (P42568 whole entry, looked up): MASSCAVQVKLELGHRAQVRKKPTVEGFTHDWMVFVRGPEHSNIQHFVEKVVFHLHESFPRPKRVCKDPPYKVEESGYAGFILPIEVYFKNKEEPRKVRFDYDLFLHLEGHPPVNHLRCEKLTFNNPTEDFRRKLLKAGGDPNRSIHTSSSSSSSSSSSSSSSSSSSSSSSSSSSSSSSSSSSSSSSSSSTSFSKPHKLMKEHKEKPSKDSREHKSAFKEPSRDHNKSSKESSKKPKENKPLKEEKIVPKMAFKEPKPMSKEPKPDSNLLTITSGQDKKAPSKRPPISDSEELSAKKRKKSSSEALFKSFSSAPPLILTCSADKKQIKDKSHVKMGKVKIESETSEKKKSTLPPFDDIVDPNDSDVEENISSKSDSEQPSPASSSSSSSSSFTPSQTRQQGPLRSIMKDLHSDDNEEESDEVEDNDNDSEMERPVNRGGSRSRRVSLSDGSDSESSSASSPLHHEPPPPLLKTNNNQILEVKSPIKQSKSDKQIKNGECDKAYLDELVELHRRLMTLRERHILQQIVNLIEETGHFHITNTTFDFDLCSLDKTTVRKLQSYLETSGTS
RanGTP-Impb inh = disruptors of Ran-importin-beta complex formation – biochemical, FRET, CFP-Ran, YFP-importin-beta, homogeneous, primary screen. hit rate 1.1% among 300,000. inhibition, % (concentration not given with the values). cell-free CFP-Ran/YFP-importin-beta FRET ratio. AID 2216;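 active = most replicates above 15%; inconclusive = exactly half above 15%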;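 also: 0% = DMSO wells and 100% = Ran loaded with GDP instead of GTP; wells of about 40 µL received 100 nL stock; the first replicate is given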
LANA-H2A inh = blocks KSHV LANA binding to histone H2A/H2B. Q9QR71. inhibition, % (no concentration beside the values). hit rate 0.6% among 320,000. cell-free LANA-H2A/H2B peptide, fluorescence polarization. AID 2629; in the data active = inhibition mostly above about 10%, no sharp cut-off; inactive = mostly below about 6.7%;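 also: stock transfer was 7.5 nL into about 10 µL; 0% = median of vehicle wells and 100% = median of positive control wells; one replicate is shown; the record names a cut of 25% in any replicate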
Calb FLC = C. albicans growth modulation with fluconazole. hit rate 0.57% among 300,000. C. albicans CaCi-2 (fluconazole-resistant clinical isolate) + fluconazole, Alamar Blue growth, 48 h. growth inhibition, % (test concentration not listed). AID 1979;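 active = most replicates above 75%; inconclusive = exactly half above 75%; inactive = most below 75%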;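 also: all wells also contain fluconazole at 8 µg/ml as a sub-toxic cotreatment; 0% = median of DMSO wells and 100% = median of geldanamycin control wells; wells of about 8 µL received 7.5 nL stock; the first replicate is given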
Bfl-1 A1 inh = inhibitors of the anti-apoptotic protein A1, read as caspase activation; MEF A1-2A-BIM cells, Caspase-Glo 3/7 luminescence, 3 h; percent of clofoctol response, vehicle zero; caspase activation, % (no concentration beside the values); hit rate 0.066% among 330,000; AID 2462;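 active = over half of replicate activation scores above 10%, or exactly half above 10 with the replicate mean above 10; inconclusive = replicate mean below 10 yet half the replicates above 10; inactive = over half of replicates below 10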;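 also: wells of about 30 µL received 50 nL stock; many hits fall short of the cut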
T cruzi inh = blocks replication of Trypanosoma cruzi; hit rate 1.4% among 300,000; T. cruzi beta-gal in NIH3T3, luminescence, 90 h; inhibition, % (concentration not given with the values);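 active = mean inhibition across valid replicates above about 55%, limit read from the data; inconclusive = mean below that limit but half or more replicates reach it; inactive = mean below it, under half of replicates reach it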;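 also: signal also drops with host cell toxicity which is not excluded here; 0% = plate median of DMSO wells and 100% = zero luminescence signal; higher percent means less beta-gal luminescence so fewer parasites; stock transfer was 50 nL into about 50 µL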
Vif A3G = inhibitors of Vif binding to APOBEC3G peptide, primary screen, biochemical, TR-FRET, GST-Vif 1-94, biotin-A3G peptide, dose response retest (AID 1117319). TR-FRET GST-Vif / biotin-A3G peptide binding; higher % means a stronger effect; test concentration not given here; strong numbers were not always called active. one-dose inhibition, %; IC50 in µM for titrated hits. hit rate 0.57% among 260,000;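 active = above the screen mean plus three standard deviations and confirmed in dose response; inconclusive = results disagree or hit not tested in dose response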;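 also: Vif residues 1-94 fused to GST binding biotinylated APOBEC3G peptide 110-148; 0% = full assay without inhibitor and 100% = GST in place of GST-Vif; retest series ran down from 100 µM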
Beta apoptosis = beta cell apoptosis inhibition | hit rate 0.8% among 300,000 | INS-1E cytokine-induced death, ATP luminescence, 48 h; percent of positive-control rescue, neutral wells zero | protection from apoptosis, % (no concentration beside the values);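 active = all replicates at 75% or more, or half of them and the mean; inconclusive = half reach 75% but not the mean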;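 also: 0% = cytokine-treated negative control wells and 100% = positive control rescue; higher means more ATP so stronger rescue from cytokine killing; wells of about 40 µL received 100 nL stock; the first replicate is given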
* hit, by the source's call.

`Cc1ccc(C(=O)N2CCCC(CCC(=O)N3CCN(c4ccccn4)CC3)C2)cn1` (stereo not drawn) gave AF4-AF9 inh 0.6, RanGTP-Impb inh 0.0, LANA-H2A inh 10.5*, Calb FLC 0.1, Bfl-1 A1 inh -0.7, T cruzi inh 2.8 and Vif A3G -5.7%.
Screening CC1(C)CC(=O)C2=C(C1)OC(N)=C(C#N)C2c1ccccc1OC(=O)N1CCOCC1 (stereo not drawn) returned RanGTP-Impb inh 0.8, LANA-H2A inh 0.1, Calb FLC 3.8, Bfl-1 A1 inh 0.3, T cruzi inh -5.0, Vif A3G 9.8% and Beta apoptosis -5.0.
CCOC(=O)CSc1nc2ccc(NC(=O)CSc3nnnn3Cc3ccccc3)cc2s1 was read as RanGTP-Impb inh 4.3, LANA-H2A inh -3.5, Calb FLC 4.3, Bfl-1 A1 inh 0.3, T cruzi inh inconclusive and Beta apoptosis -3.7.
COc1ccc(C(=O)C=CNNC(=O)c2ccc(Cl)cc2)cc1 was read as AF4-AF9 inh -1.0, RanGTP-Impb inh -4.4, LANA-H2A inh 1.7, Calb FLC -1.9, Bfl-1 A1 inh 1.1, T cruzi inh -4.8, Vif A3G 1.0% and Beta apoptosis 12.8.
For C=CCn1c(SCC(=O)N2CCN(c3ccccc3)CC2)nc2c([nH]c3ccccc32)c1=O the results were AF4-AF9 inh -2.3, LANA-H2A inh -1.5, Bfl-1 A1 inh -0.3, T cruzi inh -20.8, Vif A3G 1.6% and Beta apoptosis 7.7.
`Cc1c(OC(C)C(=O)O)ccc2c(-c3ccccc3)cc(=O)oc12` (stereo not drawn) gave AF4-AF9 inh -1.2, RanGTP-Impb inh 1.3, LANA-H2A inh -1.8, Calb FLC -2.5, Bfl-1 A1 inh 0.5, T cruzi inh -7.8, Vif A3G 0.2% and Beta apoptosis -6.8.
Screening Cc1ccc(C(O)c2nccn2C)o1 (stereo not drawn) returned RanGTP-Impb inh -3.3, LANA-H2A inh -6.2, Calb FLC -0.3, Bfl-1 A1 inh 0.0, T cruzi inh 5.9 and Vif A3G inconclusive.
O=C(CSc1nc2[nH]c(=O)[nH]c(=O)c2s1)Nc1cccc(F)c1 was read as AF4-AF9 inh -4.6, LANA-H2A inh 4.2, Bfl-1 A1 inh 0.5 and Beta apoptosis -7.0.
`CCn1c(SCC(=O)NNC(=O)c2ccc(OC)cc2)nnc1-c1cccnc1` gave AF4-AF9 inh -1.4, RanGTP-Impb inh 0.5, LANA-H2A inh 0.6, Calb FLC -2.5, Bfl-1 A1 inh 0.7, T cruzi inh -8.1, Vif A3G -12.9% and Beta apoptosis -3.0.
For C/C(CC(=O)NCCCN1CCOCC1)=N\NC(=O)COc1ccc(Cl)cc1 the results were RanGTP-Impb inh -1.6, LANA-H2A inh 6.8, Calb FLC 2.0, Bfl-1 A1 inh 1.3, T cruzi inh -12.4, Vif A3G -4.8% and Beta apoptosis -3.9.
Screening COc1cccc(NC(=O)N2CCN(c3cccc(C)c3C)CC2)c1 returned RanGTP-Impb inh 0.2, LANA-H2A inh 0.8, Calb FLC inconclusive, Bfl-1 A1 inh 0.1, T cruzi inh 3.1, Vif A3G 7.6% and Beta apoptosis 4.1.
For COc1ccc(C(c2c(C)n(C)n(-c3ccccc3)c2=O)c2c(C)n(C)n(-c3ccccc3)c2=O)cc1 the results were AF4-AF9 inh -4.5, RanGTP-Impb inh 2.7, LANA-H2A inh 1.5, Calb FLC 31.8, Bfl-1 A1 inh 0.7, T cruzi inh -10.6, Vif A3G -1.9% and Beta apoptosis -0.2.
For Cc1ccc2nc(NC(=O)C3CC(=O)N(Cc4ccco4)C3)sc2c1 (stereo not drawn) the results were AF4-AF9 inh -4.8, RanGTP-Impb inh 2.4, LANA-H2A inh 10.3, Calb FLC 3.5, Bfl-1 A1 inh 1.1, T cruzi inh 8.8, Vif A3G 0.0% and Beta apoptosis -1.6.
Screening CCC(CC)C(=O)Nc1cc([N+](=O)[O-])ccc1Cl returned AF4-AF9 inh inconclusive, RanGTP-Impb inh 4.7, LANA-H2A inh 3.2, Calb FLC 4.3, Bfl-1 A1 inh 0.1, T cruzi inh -5.8 and Beta apoptosis 0.7.
Screening CS(=O)(=O)c1ccc2nc(NC(=O)c3cccc(NS(=O)(=O)c4ccc(F)c(F)c4)c3)sc2c1 returned RanGTP-Impb inh 10.9, LANA-H2A inh -13.3, Calb FLC 34.4, Bfl-1 A1 inh -2.1, T cruzi inh -2.4, Vif A3G 18.7% and Beta apoptosis -6.8.
Cc1ccc(/C=C2\SC(=S)N(CCC(=O)NNC(=O)c3ccncc3)C2=O)cc1 was read as AF4-AF9 inh -2.7, RanGTP-Impb inh -0.3, LANA-H2A inh 1.3, Calb FLC -1.5, Bfl-1 A1 inh 0.1, T cruzi inh -18.0, Vif A3G 7.5% and Beta apoptosis 0.7.
Screening CC1(C)C(c2ccccc2)=NC(c2ccc(F)cc2)N1O (stereo not drawn) returned RanGTP-Impb inh 2.2, LANA-H2A inh -0.5, Calb FLC 7.3, Bfl-1 A1 inh 0.2, T cruzi inh -15.4, Vif A3G -0.6% and Beta apoptosis -9.2.
Screening COc1cc(Nc2nnc(C)s2)c(Cl)cc1Cl returned RanGTP-Impb inh 6.0, LANA-H2A inh -0.1, Calb FLC 1.3, Bfl-1 A1 inh 1.5, T cruzi inh 23.1, Vif A3G -1.2% and Beta apoptosis 0.9.
Screening CSc1ncccc1C(=O)OCc1ccc([N+](=O)[O-])cc1 returned AF4-AF9 inh -2.4, RanGTP-Impb inh 3.9, LANA-H2A inh 2.5, Calb FLC -13.7, Bfl-1 A1 inh 0.2, T cruzi inh -12.3, Vif A3G 5.9% and Beta apoptosis 6.9.
O=C(Nc1ccc(N2CCN(C(=O)c3ccco3)CC2)c(Cl)c1)c1cccnc1 was read as AF4-AF9 inh 1.9, RanGTP-Impb inh 1.7, LANA-H2A inh 2.2, Calb FLC -1.6, Bfl-1 A1 inh -0.3, T cruzi inh 8.7, Vif A3G 12.3% and Beta apoptosis 0.4.
CCOc1ccc(C(C)NC(=O)c2ccccc2OCc2c(C)noc2C)cc1OCC (stereo not drawn) was read as AF4-AF9 inh -12.5, RanGTP-Impb inh -0.1, LANA-H2A inh -10.5, Calb FLC 0.7, Bfl-1 A1 inh -1.7, T cruzi inh 10.7 and Beta apoptosis -6.9.
`CCCCOc1cccc(C(=O)NC(=S)Nc2cccnc2)c1` gave AF4-AF9 inh 3.8, RanGTP-Impb inh 0.2, LANA-H2A inh -1.3, Calb FLC 22.9, Bfl-1 A1 inh -2.3, T cruzi inh 1.2, Vif A3G inconclusive and Beta apoptosis -13.3.
Screening COc1cc2c(cc1OC)CN(C(=O)c1ccccc1C(=O)O)CC2 returned RanGTP-Impb inh inconclusive, LANA-H2A inh -2.8, Calb FLC -0.4, Bfl-1 A1 inh -0.7, T cruzi inh -16.1, Vif A3G 0.8% and Beta apoptosis -4.0.
`OC(CN1C2=NCCCN2c2ccccc21)c1ccc(Br)cc1` (stereo not drawn) gave RanGTP-Impb inh -3.5, LANA-H2A inh -12.3, Calb FLC -21.8, Bfl-1 A1 inh 0.1, T cruzi inh 16.1, Vif A3G -1.4% and Beta apoptosis 10.4.
`CCOC(=O)c1sc(=NC(=O)CCS(=O)(=O)c2ccccc2)n(C)c1C` gave AF4-AF9 inh -0.7, RanGTP-Impb inh 2.5, LANA-H2A inh 4.1, Calb FLC 6.2, Bfl-1 A1 inh 0.0, T cruzi inh 6.0, Vif A3G -8.7% and Beta apoptosis 0.5.
For Cc1cc(=O)n2nc(N3CCC(C(=O)NCCc4ccccc4)CC3)sc2n1 the results were RanGTP-Impb inh 1.7, LANA-H2A inh 1.2, Calb FLC -8.0, Bfl-1 A1 inh 0.1, T cruzi inh -1.8, Vif A3G 10.9% and Beta apoptosis -0.5.
For CCN(Cc1ccccc1)C(=O)Cn1cnc2c1c(=O)n(C)c(=O)n2C the results were RanGTP-Impb inh -0.2, LANA-H2A inh -2.1, Calb FLC 13.5, Bfl-1 A1 inh 2.2, T cruzi inh -6.0, Vif A3G -4.5% and Beta apoptosis -8.4.
Screening O=C(/C=C/c1ccc(S(=O)(=O)N2CCOCC2)cc1)NCCc1ccc(C(F)(F)F)cc1 returned AF4-AF9 inh 1.1, LANA-H2A inh -2.5, Bfl-1 A1 inh -1.8 and Beta apoptosis 5.1.
Screening O=C(O)c1nc2ccccc2nc1C(=O)O returned RanGTP-Impb inh 0.8, LANA-H2A inh 3.5, Calb FLC -5.4, Bfl-1 A1 inh -0.8, T cruzi inh -28.5, Vif A3G 2.1% and Beta apoptosis -7.1.
Cc1nc2ccc(NS(=O)(=O)c3ccccc3Cl)cc2s1 was read as AF4-AF9 inh -2.6, LANA-H2A inh -1.4, Bfl-1 A1 inh 1.6, Vif A3G -6.6% and Beta apoptosis 1.8.
Screening CCOC(=O)C1=CC[C@]2(C)c3c(c4ccccc4n3C)C(=O)C1N2C returned AF4-AF9 inh 1.3, LANA-H2A inh 2.6, Bfl-1 A1 inh 1.2 and Beta apoptosis 6.6.
For COc1ccc2c(COC(=O)CNS(=O)(=O)c3ccccc3)cc(=O)oc2c1 the results were AF4-AF9 inh 1.8, LANA-H2A inh -5.9, Bfl-1 A1 inh -0.4 and Beta apoptosis 0.9.
For CC(=O)Nc1ccc(S(=O)(=O)Nc2cccc3[nH]ncc23)cc1 the results were AF4-AF9 inh -0.1, RanGTP-Impb inh -4.1, LANA-H2A inh 0.7, Calb FLC 2.4, Bfl-1 A1 inh -0.3, T cruzi inh -16.7, Vif A3G 8.0% and Beta apoptosis -0.5.
CC1(C)CC(=O)C(C2NCCc3ccccc32)=C(O)C1 (stereo not drawn) was read as RanGTP-Impb inh 5.6, LANA-H2A inh -1.5, Calb FLC 0.3, Bfl-1 A1 inh -0.6, T cruzi inh -12.3, Vif A3G 73.5% and Beta apoptosis -4.7.
For CCOC(=O)C1(Cc2cccc(Cl)c2)CCCN(C2CCN(C(C)=O)CC2)C1 (stereo not drawn) the results were AF4-AF9 inh 3.3, RanGTP-Impb inh 0.9, LANA-H2A inh -5.8, Calb FLC 2.8, Bfl-1 A1 inh 1.7, T cruzi inh 6.0, Vif A3G 2.7% and Beta apoptosis 2.2.
Screening C/C(=N\Nc1cc(C)nc(NCc2ccccc2)n1)c1ccc([N+](=O)[O-])cc1 returned RanGTP-Impb inh -6.0, LANA-H2A inh 2.3, Calb FLC -3.0, Bfl-1 A1 inh 0.5, T cruzi inh 9.5, Vif A3G -5.1% and Beta apoptosis 16.3.
`O=C(NC1CCCCCCC1)c1cccnc1` gave AF4-AF9 inh -3.6, RanGTP-Impb inh -1.0, LANA-H2A inh -1.1, Calb FLC 7.5, Bfl-1 A1 inh -0.2, T cruzi inh 1.4 and Beta apoptosis -4.9.

This is a random part of the collection; about 4.3% have a hit in one of these screens.
